# High-throughput results from PubChem.
# GIV-Gai inh – blocks GIV peptide binding to rat Galpha-i3. P08753. Galpha-i3/FITC-GIV peptide fluorescence polarization, 90 min; stronger effect = lower value; scaled: aluminum fluoride 0%, vehicle 100%. AID 1224905. percent of control (FP), % (concentration not given with the values). 210,000 tested, 0.42% active;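 active means replicate mean at 85% of control or lower, very high polarization wells dropped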;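 further: wells of about 15 µL received 100 nL stock; the first replicate is given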
# Target sequence (P08753 whole entry, looked up): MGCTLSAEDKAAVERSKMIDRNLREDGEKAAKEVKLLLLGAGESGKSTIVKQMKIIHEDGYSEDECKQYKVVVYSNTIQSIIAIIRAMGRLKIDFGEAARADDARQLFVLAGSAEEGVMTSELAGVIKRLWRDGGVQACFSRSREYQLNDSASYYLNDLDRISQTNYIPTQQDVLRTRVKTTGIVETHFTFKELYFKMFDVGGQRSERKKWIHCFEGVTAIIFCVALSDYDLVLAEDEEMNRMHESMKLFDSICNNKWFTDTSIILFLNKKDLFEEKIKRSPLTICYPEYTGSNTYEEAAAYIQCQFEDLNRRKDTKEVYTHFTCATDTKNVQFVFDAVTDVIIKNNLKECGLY
# Sa growth 42C – blocks Staphylococcus aureus growth | AID 720641 | 170,000 tested, 0.53% active | relative growth, % (concentration not given with the values) | S. aureus RN4220 growth, OD600, 20 h, 42 °C; stronger effect = lower value;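 active means growth at 42 °C up to 50% and 20 or more points under that at 30 °C, or under 10% at both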;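 further: 300 nL library stock went into each well; scaled to the means of positive and negative controls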
# HCMV UL50-53 inh – disrupts HCMV UL50-UL53 complex binding; HTRF UL50-UL53 interaction, normalized percent inhibition; inhibition, % (no concentration beside the values); 190,000 tested, 0.15% active; AID 1918969;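 active means both replicates at 50% or more, plus weaker picks with an unusually low signal ratio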;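 further: stock transfer was 100 nL into about 20 µL; 0% = negative control wells and 100% = wells with untagged competitor protein; inactives centre near -12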
# Sa growth 42C second temp – also measured in Sa growth 42C; calls as there; relative growth, %; measured here: growth at 30 °C;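 optical density after 20 h as mean of two plates; 100% = untreated growth and lower means inhibition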
# * marks the source's active call; other numbers are inactive results; x = not tested or not shown; & = joins results of further samples.
no.	mol	GIV-Gai inh	Sa growth 42C
1	Cc1cc(NCCC2=CCCCC2)n2nc(C)c(-c3ccc(F)cc3)c2n1	103	x
2	O=C1c2ccccc2-c2nc3ncnn3c(-c3ccccc3)c21	105	82
3	O=C(Nc1ccccc1)Nn1cnnc1	105	93
4	COC(=O)c1c(NC(=S)Nn2cnnc2)sc2c1CCC(C)C2 (configuration not stated)	100	101
5	O=C(NCCCN1CCCC1=O)c1ccc2nc(N3CCOCC3)sc2c1	101	97
6	CC(=O)c1ccc(NC(=O)COCc2cc(-c3ccc(F)cc3)on2)cc1	100	110
7	Cc1ccccc1Cn1c(=O)n(Cc2ccco2)c(=O)c2ccc(C(=O)NCCc3ccccc3)cc21	103	108
8	C=CCn1c(SCC(=O)NC(=O)NCc2ccco2)nc2ccc(Cl)cc2c1=O	x	94
9	O=C(NC1CC(=O)N(c2cccc(F)c2)C1)C1CC1 (configuration not stated)	98&99	108
10	O=C(NCC(c1cccnc1)N1CCc2ccccc21)c1cccc(Br)c1 (configuration not stated)	103	76
11	N#CCCn1nc(-c2ccccc2)cc1Nc1ccccc1N	x	105
12	c1nc2c3c4c(sc3ncn2n1)CCCC4	112	88
13	COc1cccc(/C=N/N2C(=O)CSC2=S)c1O	109	72
14	CCOc1ccc(-c2c(C)sc(=Nc3ccccc3)n2Cc2ccco2)cc1	x	89
15	Cc1ccc(S(=O)(=O)NCc2nc3nc(C)cc(C)n3n2)cc1	101	105

no.	Sa growth 42C second temp	HCMV UL50-53 inh
1	x	-24
2	83	-41
3	87	-13
4	99	-15
5	81	1
6	97	x
7	93	x
8	100	-3
9	89	x
10	68	-4
11	77	-34
12	42	5
13	36	x
14	84	-23
15	94	4

# Shown with tabs: part of the list above
No.	molecule	GIV-Gai inh	Sa growth 42C	Sa growth 42C second temp	HCMV UL50-53 inh
7	Cc1ccccc1Cn1c(=O)n(Cc2ccco2)c(=O)c2ccc(C(=O)NCCc3ccccc3)cc21	103	108	93	x
8	C=CCn1c(SCC(=O)NC(=O)NCc2ccco2)nc2ccc(Cl)cc2c1=O	x	94	100	-3
9	O=C(NC1CC(=O)N(c2cccc(F)c2)C1)C1CC1 (configuration not stated)	98&99	108	89	x
10	O=C(NCC(c1cccnc1)N1CCc2ccccc21)c1cccc(Br)c1 (configuration not stated)	103	76	68	-4
11	N#CCCn1nc(-c2ccccc2)cc1Nc1ccccc1N	x	105	77	-34
12	c1nc2c3c4c(sc3ncn2n1)CCCC4	112	88	42	5
13	COc1cccc(/C=N/N2C(=O)CSC2=S)c1O	109	72	36	x

# (next part)
no.	mol	GIV-Gai inh	Sa growth 42C
16	CC(=O)Oc1ccn(C)c(=O)c1C#N	x	86
17	C=CCN(c1nc2nc(C)cc(C)n2n1)S(=O)(=O)c1ccc(Cl)cc1	105	x
18	O=C(CSc1n[nH]c(=O)n1-c1ccccc1)N1CCC(C(F)(F)F)CC1	104	111
19	Cc1cc(C)c2c(n1)nn1c(C)c(CCC(=O)NCC3CCCO3)c(C)nc21 (configuration not stated)	103	96
20	COc1cc(/C=C2/SC(=Nc3cc(C)cc(C)c3)NC2=O)cc(Br)c1OC	104	97
21	O=C1Nc2cc(C(=O)N3CCN(c4ccccc4)CC3)ccc2N2CCCCC12 (configuration not stated)	106	x
22	CCc1cc(C(=O)N2C(C)CCCC2C)no1 (configuration not stated)	104	x
23	CCC(=O)Nc1nc2c(s1)C(=O)CC(C)(C)C2	96	x
24	CC1CCN(c2ccc(C(=O)O)cc2)CC1	99	96
25	CCc1ccc(N2CCN(S(=O)(=O)CC34CCC(CC3=O)C4(C)C)CC2)cc1 (configuration not stated)	107	103
26	COc1cccc(OC)c1C(=O)NCC(c1ccc(N(C)C)cc1)N(C)C (configuration not stated)	105	x
27	N#CCCN(Cc1cccs1)S(=O)(=O)c1cccc2nsnc12	95	91
28	COc1cccc(-c2ccc(SCc3nc(-c4ccc(Br)cc4)no3)nn2)c1	108	x
29	O=C(Cn1c(-c2cccs2)cc2ccccc21)N1CCN(c2ccc(Cl)cc2)CC1	107	131
30	Cn1c(C(=O)NCc2cccc(Cl)c2)c(N2CCCC2=O)c2cc(F)ccc21	100	x

no.	Sa growth 42C second temp	HCMV UL50-53 inh
16	88	-14
17	x	-8
18	101	1
19	99	4
20	89	x
21	x	-33
22	x	-11
23	x	-20
24	83	3
25	97	2
26	x	12
27	73	-30
28	x	-19
29	99	x
30	x	-5

# (continued)
no.	mol	GIV-Gai inh	Sa growth 42C
31	COc1cc(NC(=O)COCc2cc(-c3ccc4c(c3)OCO4)on2)cc(OC)c1	108	115
32	CCc1nnc(-c2cn(CC(=O)NCc3cccc(OC)c3)c3ccccc23)o1	100	x
33	O=C1c2cccnc2C(=O)N1c1ccc(Cl)cc1	102	x
34	CCOC(=O)c1ccccc1NC(=O)Cn1c2ncccc2c(=O)n1-c1ccccc1	111	91
35	O=C(OCCN1CCOCC1)c1sc2ccccc2c1Cl	x	110
36	O=C(CN(CCO)CCO)N(C1CCCCC1)C1CCCCC1	105	103
37	COC(=O)CN(C#N)c1nc(NCc2ccccc2)nc(OC)n1	110	x
38	CC(C)(C)c1ccc(-c2noc(CS(=O)(=O)c3ccc(Cl)cc3)n2)cc1	100	105
39	CCc1ccccc1Nc1nn2c(=O)c3ccc(C(=O)NCc4ccccc4OC)cc3nc2s1	104	181
40	CCn1c(C)cc(-c2csc(N)n2)c1C	98	93
41	Cc1ccc(C)c(N2CCN(C(=O)CCn3nnc4cc(S(=O)(=O)N5CCCC5)ccc43)CC2)c1	110	x
42	Cc1cc(C)n(CCC(=O)NCCN2CCN(c3cc(Cl)ccc3C)CC2)n1	104	97
43	CN1N=C2c3ccccc3CCCC2C1c1cccs1 (configuration not stated)	99	117
44	COc1ccccc1N1CCN(C(=O)Cn2c(=O)n3nc(-c4ccc(C)cc4)nc3c3ccccc32)CC1	101	107
45	c1ccc2c(c1)N(CN1CCCC1)CC21OCCO1	110	88

no.	Sa growth 42C second temp	HCMV UL50-53 inh
31	77	x
32	x	-18
33	x	-29
34	99	x
35	85	-10
36	104	4
37	x	54*
38	93	-4
39	76	x
40	69	8
41	x	2
42	93	9
43	90	-16
44	92	x
45	78	-59

# Seven records picked at random from the list so far, as already listed:
no.	mol	GIV-Gai inh	Sa growth 42C
45	c1ccc2c(c1)N(CN1CCCC1)CC21OCCO1	110	88
42	Cc1cc(C)n(CCC(=O)NCCN2CCN(c3cc(Cl)ccc3C)CC2)n1	104	97
38	CC(C)(C)c1ccc(-c2noc(CS(=O)(=O)c3ccc(Cl)cc3)n2)cc1	100	105
33	O=C1c2cccnc2C(=O)N1c1ccc(Cl)cc1	102	x
37	COC(=O)CN(C#N)c1nc(NCc2ccccc2)nc(OC)n1	110	x
40	CCn1c(C)cc(-c2csc(N)n2)c1C	98	93
44	COc1ccccc1N1CCN(C(=O)Cn2c(=O)n3nc(-c4ccc(C)cc4)nc3c3ccccc32)CC1	101	107

no.	Sa growth 42C second temp	HCMV UL50-53 inh
45	78	-59
42	93	9
38	93	-4
33	x	-29
37	x	54*
40	69	8
44	92	x

# Additional results follow:
no.	mol	GIV-Gai inh	Sa growth 42C
46	Brc1ccccc1-c1ccc(/C=N/N2CCOCC2)o1	x	53
47	O=C1CCCC(=O)C1CC1C(=O)CCCC1=O	x	114
48	COc1cccc(N2CC(NC(=O)C3CCCCC3)CC2=O)c1 (configuration not stated)	103	117
49	COC(=O)CN1C(c2ccc(OC)cc2)=Nc2ccc(Cl)cc2C1c1ccccc1 (configuration not stated)	102	92
50	Cc1ccc(NC(=O)COc2ccc(/C=c3/sc4n(c3=O)CCN=4)cc2)cc1	104	121
51	Cc1ccc(CNc2nc3nc(CNC(C)C)cc(=O)n3[nH]2)cc1	104	x
52	CCOC(=O)c1c2c3c(c(Cl)ccc3[nH]c1=O)C(=O)c1ccccc1-2	95	98
53	O=C(CN1C(=O)CCc2ccccc21)NC1CCCCC1	101	93
54	O=C1SCCC1NS(=O)(=O)c1ccc(Cl)c(Cl)c1 (configuration not stated)	106	108
55	CCC12CN(C(=O)c3ccco3)CC(CC)(CN(C(=O)c3ccco3)C1)C2=O	105	99
56	OC(c1c(F)c(F)c(F)c(F)c1F)c1c(F)c(F)c(F)c(F)c1F	101	88
57	COc1ccc(/C=C/C(=O)Nc2nc(-c3cccs3)ns2)cc1OC	104	108
58	CCCS(=O)(=O)c1ncc(Cl)c(C(=O)N2CCN(c3ccc(OC)cc3)CC2)n1	110	47
59	O=C(Nc1cccc(-c2noc(C3CC3)n2)c1)C1CC(=O)N(c2cccc(Cl)c2)C1 (configuration not stated)	98	x
60	Cc1ccc(S(=O)(=O)c2nc(N3CCN(c4ccccc4)CC3)sc2Cl)cc1	x	124

no.	Sa growth 42C second temp	HCMV UL50-53 inh
46	32	-43
47	95	-24
48	95	x
49	84	x
50	102	-30
51	x	5
52	36	x
53	79	x
54	95	-13
55	79	-30
56	88	-17
57	86	-9
58	45	x
59	x	3
60	106	4

# More records follow:
no.	mol	GIV-Gai inh	Sa growth 42C
61	CN(C)C(=O)c1cccc2c1-c1ccccc1C2	107	96
62	COC(=O)Cc1c(C)c2ccc(OC(C)C)cc2oc1=O	100	104
63	CCOc1ccc(Nc2nc3c(S(=O)(=O)c4ccc(C(C)C)cc4)nnn3c3ccsc23)cc1	94	114
64	CCOc1ccc(-c2ccc(SCc3nc(-c4ccccc4Br)no3)nn2)cc1	106	x
65	CCOC(=O)N1CCC(n2c(SCC(=O)NC(C)CC)nc3ccccc3c2=O)CC1 (configuration not stated)	101	106
66	CCN(CC)C(=O)NCC1CCCO1 (configuration not stated)	103	84
67	CCN1CCN(Cc2ccc(NC(=O)c3ccc4c(c3)N(CC)CCS4)cc2)CC1	100	112
68	O=C(NCc1ccccc1)c1ccc(CN2CC(=O)N3CCCCC3C2=O)cc1 (configuration not stated)	95	102
69	Cn1nc(-c2ccc(Br)s2)c(Br)c1C(F)(F)F	107	99
70	COC(=O)Cc1c(C)nc2nc(-c3ccc(C)cc3)[nH]n2c1=O	108	113
71	CCCCOc1ccc(C(=O)OC(C)CN(C)C)cc1 (configuration not stated)	102	96
72	CCCCCCCc1nc2c(=O)[nH]c3ccccc3c2o1	113	100
73	CCOC(=O)C1=C(N)OC2=C(C(=O)CC(c3ccccc3)C2)C1c1cc(OC)ccc1OC (configuration not stated)	104	x
74	O=C(c1ccno1)n1nccc1-c1cc(-c2ccccc2)no1	102	103
75	O/N=C/c1ccco1	x	110

no.	Sa growth 42C second temp	HCMV UL50-53 inh
61	89	-10
62	94	-18
63	78	x
64	x	-5
65	88	x
66	84	-2
67	93	-10
68	90	-16
69	78	-10
70	94	-1
71	83	-31
72	98	2
73	x	15
74	94	-32
75	91	-1

# (more compounds)
no.	mol	GIV-Gai inh	Sa growth 42C
76	COc1ccc(CN(C(=O)CN2C(=O)COc3ccccc32)C2CCCC2)c(OC)c1	99	90
77	CCOC(=O)N1CCN(C(=O)c2cnn(-c3cccc(F)c3)c2-n2cccc2)CC1	98	89
78	CCn1c(-c2ccc3c(c2)OCCO3)cnc1SCC(=O)Nc1sccc1C#N	x	107
79	COc1cc2c(cc1OC)C(COc1ccc(F)cc1)N(C(=O)Cc1ccccc1)CC2 (configuration not stated)	102	104
80	Cc1ccc(CNC(=O)C2CCN(S(=O)(=O)c3ccc4c(c3)oc(=O)n4C)CC2)cc1	106	112
81	CCCNC(=O)N1CCCCC1C (configuration not stated)	105	101
82	CC1=C(C(=O)Nc2cccc(C)c2C)C2(CCCCC2)OC1=O	104	107
83	Cc1cc(C)n2c(Nc3ccc(C(C)C)cc3)c(-c3ccsc3)nc2n1	101	99
84	CC1CCCN(C(=O)c2cc3ccccc3oc2=O)C1 (configuration not stated)	x	93
85	CC1=C(C(=O)C(F)(F)F)CCC(=O)N1C1CCCCCC1	x	88
86	CC(C)C1Nc2ccc(C(=O)O)cc2C2C=CCC21 (configuration not stated)	x	95
87	Cc1nc(-c2cccc(F)c2)sc1CCNC(=O)C(=O)Nc1ccc2c(c1)OCCO2	103	103

no.	Sa growth 42C second temp	HCMV UL50-53 inh
76	90	-17
77	88	x
78	96	-29
79	73	x
80	88	-12
81	102	15
82	91	-25
83	94	7
84	84	-11
85	88	-16
86	68	-18
87	73	x
